Screening data: PubChem BioAssay, NMMLSC
Bead autofluor: counter-screen for toxin protease inhibitors: compound fluorescence; hit rate 3.1% among 360,000; compound autofluorescence counterscreen, microsphere flow cytometry; active compounds read high; AID 624483; fluorescence intensity (no concentration beside the values);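 active means at least 3 SD above the mean of all compounds, about 16000 in these data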;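 further: 100 nL of 1 mM stock went into each well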
An asterisk follows results filed as active.

SMILES | Bead autofluor
O=C(c1cc(C2CCCCN2S(=O)(=O)c2ccc(F)cc2F)on1)N1CCOCC1 (centres undefined) | 3735
C#CCN(C[C@H]1[C@H](OC(=O)NCC2CCCCC2)[C@H](OC(=O)NCC2CCCCC2)C[C@@H](C(=O)OC)[C@H]1C(=O)OC)S(=O)(=O)c1ccc(C)cc1 | 3024
COc1cc(OC)nc(C(NC(=O)C2CCN(Cc3ccc(N(C)C)cc3)CC2)c2ccc(F)cc2)n1 (centres undefined) | 3815
CC(c1nc2ccccc2[nH]1)N(C(=O)Cc1csc2ccccc12)c1cccnc1 (centres undefined) | 5770
CCCNC(=O)C1(C)CCCN(Cc2ccc(-c3ccccc3)o2)C1 (centres undefined) | 3310
O=C(NCCCN1CCCC1)c1ccc2c(c1)N(Cc1cccc(Cl)c1)C(=O)c1ccccc1S2(=O)=O | 4557
CCCNC(=O)c1cc2c(c(-c3cccc(-c4ccc(F)cc4)c3)n1)[C@H](CCO)N(S(=O)C(C)(C)C)C2 (some centres undefined) | 5901
CCOC(=O)C1CCCN(C(=O)c2ccc(-c3ccccc3)cc2)CC1 (centres undefined) | 3763
COc1cccc(C(=O)Nc2cc(C)on2)c1 | 3897
CC(C)C(=O)N1CCCC1(C)C(=O)Nc1cccc(Oc2ccccc2)c1 (centres undefined) | 4038
CCN1CCC(C(=O)NC(c2ccc(F)cc2)c2ncccc2C)CC1 (centres undefined) | 3551
COc1ccc(CN2C(=O)C(CC(=O)NCc3cccs3)CC(C(=O)N(C(C)C)C(C)C)=C2C)cc1 (centres undefined) | 3690
Cc1cccc(CN2CCN(C3CN(Cc4cn(Cc5cccc(Cl)c5)nn4)S(=O)(=O)C3)CC2)c1 (centres undefined) | 6209
CC1(c2ccc(Cl)cc2)NC(=O)N(CC(=O)N2CCN(C(=O)c3cccs3)CC2)C1=O (centres undefined) | 3724
O=S(=O)(Cc1ccccc1)C(c1ccccc1)S(=O)(=O)Cc1ccccc1 | 3924
CC[C@@H]1Cc2[nH][nH]c(=O)c2[C@H](c2ccc(Cl)cc2)O1 | 5813
COC(=O)[C@]12CCCCC=C1N(Cc1ccc(Cl)cc1Cl)C(=O)[C@H](CC(=O)NCC13CC4CC(CC(C4)C1)C3)C2 | 5332
O=C(Cc1ccccc1F)Nc1cc(S(=O)(=O)N2CCCCC2)ccc1N1CCOCC1 | 3603
O=CC(=Cc1ccccc1)c1ccccc1 | 3626
O=C(Nc1cccc(C(F)(F)F)c1)c1csc(COCCO)n1 | 4442
CC1(C(=O)NS(=O)(=O)c2cccc(F)c2)CCN1C(=O)C1CCCCC1 (centres undefined) | 3377
Cc1ccc(C2NC(=S)N3C(c4ccc(C)cc4)NC(=S)N23)cc1 (centres undefined) | 2899
Cc1ccc(-c2nc3c(Cl)cc(C(F)(F)F)cn3c2Cc2cccc(F)c2)cc1 | 6219
COC(=O)c1ccc2nc(-c3ccc(OC)c(OC)c3)c(Cc3ccc(C)cc3)n2c1 | 5730
COc1ccc(Cc2c(C(C)(C)C)nc3c(C)cc(Br)cn23)c(C)c1 | 4637

Some of the entries so far, with tabs:
mol	Bead autofluor
CC(c1nc2ccccc2[nH]1)N(C(=O)Cc1csc2ccccc12)c1cccnc1 (centres undefined)	5770
CCCNC(=O)C1(C)CCCN(Cc2ccc(-c3ccccc3)o2)C1 (centres undefined)	3310
O=C(NCCCN1CCCC1)c1ccc2c(c1)N(Cc1cccc(Cl)c1)C(=O)c1ccccc1S2(=O)=O	4557
CCCNC(=O)c1cc2c(c(-c3cccc(-c4ccc(F)cc4)c3)n1)[C@H](CCO)N(S(=O)C(C)(C)C)C2 (some centres undefined)	5901

Following part:
SMILES | Bead autofluor
CC(=O)c1cccc(NC(=O)c2ccc(-n3cncn3)c3ccoc23)c1 | 2884
Cc1ccc2nc(CN(C)C(=O)[C@H]3O[C@@H](n4ccc(N)nc4=O)[C@H](O)[C@@H]3O)[nH]c2c1 | 6000
Cc1ccc(CNc2nc3cc(-c4ccccc4)sc3c(=O)n2C)c(C)c1 | 3536
O=c1[nH]c(CN2CCCCC2)ccc1O | 3829
CC(=O)NC(C)(c1ccccc1)c1nc(-c2cnc3ccccc3c2)cs1 (centres undefined) | 3790
O=C(CC[C@H]1O[C@@H](n2ccc(=O)[nH]c2=O)[C@H](O)[C@@H]1O)N[C@H](Cc1ccccc1)C(=O)NC1CCCCC1 | 5713
Cc1ccc(Cn2c(C)c(C(=O)NCc3ccc(Cl)c(Cl)c3)sc2=O)cc1 | 5662
COc1ccc(NC(=O)C2(C)CCN2C(=O)Cc2ccccc2)cc1OC (centres undefined) | 3748
CCOC(=O)[C@]12CCCC=C1N(Cc1ccco1)C(=O)[C@H](CC(=O)NCc1cccs1)C2 | 5796
Cc1cc(C2=CC(=O)C[C@H](c3ccc(F)cc3)C2)ccc1F | 3615
COc1ccc(Cl)cc1Cn1c(C)c(C(=O)NCc2ccc(C#N)cc2)sc1=O | 5930
CCNC(=O)C1(C)CCN(Cc2ccc(C(=O)OCC)o2)C1 (centres undefined) | 4064
CCc1nc2ccc(C(=O)N3CCNC(=O)C3)cn2c1N(C)CCC(C)C | 3537
O=C(O)c1ccccc1C(=O)OC1CC2CCC1C2 (centres undefined) | 2724
CC(C)(C)n1nnnc1C(c1ccccc1)N1CCN(c2ncccn2)CC1 (centres undefined) | 5637
CN(C)Cc1csc(Nc2ccc(C(=O)c3ccccc3)cc2)n1 | 3907
Cc1ccc(S(=O)(=O)N2C[C@H]3C(=O)C[C@@H](c4ccc(Cl)cc4)N(S(=O)(=O)c4ccc(C)cc4)[C@H]3C[C@H]2c2ccc(Cl)cc2)cc1 | 6282
CC(=O)Nc1ccccc1NC(=O)c1ccc2c(c1)OCO2 | 3012
CC(=O)c1ccc(Nc2nc(C(N)CC(C)C)cs2)cc1 (centres undefined) | 2855
CO[C@@H]1[C@@H](OC(N)=O)[C@@H](O)[C@H](Oc2ccc3c(O)c(NC(=O)c4ccc(O)c(CC=C(C)C)c4)c(=O)oc3c2C)OC1(C)C | 4496
CCc1nc2ccc(C(=O)N3CCN(C(=O)c4ccco4)CC3)cn2c1N(CC)CCOC | 4325
N=C1CCCC1C(=S)SCCC(N)=O (centres undefined) | 3757
O=C(Cn1cc(C(=O)C(=O)N2CCOCC2)c2ccccc21)Nc1cccc(C(F)(F)F)c1 | 3801
C[C@H]1CN([C@@H](C)CO)C(=O)CCCn2nncc2CO[C@@H]1CN(C)Cc1ccc(-c2ccccc2)cc1 | 3986
C[C@@H]1CN([C@@H](C)CO)C(=O)c2cc(NC(=O)c3ccncc3)ccc2O[C@@H](C)CCCCO[C@@H]1CN(C)C(=O)Cc1ccccc1 | 3929

Gathered by group, those above with a furan ring, fused or not.
SMILES | Bead autofluor
CCCNC(=O)C1(C)CCCN(Cc2ccc(-c3ccccc3)o2)C1 (centres undefined) | 3310
CC(=O)c1cccc(NC(=O)c2ccc(-n3cncn3)c3ccoc23)c1 | 2884
CCOC(=O)[C@]12CCCC=C1N(Cc1ccco1)C(=O)[C@H](CC(=O)NCc1cccs1)C2 | 5796
CCNC(=O)C1(C)CCN(Cc2ccc(C(=O)OCC)o2)C1 (centres undefined) | 4064
CCc1nc2ccc(C(=O)N3CCN(C(=O)c4ccco4)CC3)cn2c1N(CC)CCOC | 4325

Following part:
SMILES | Bead autofluor
CCOC(=O)C1=CCN(S(=O)(=O)c2ccccc2Br)C1c1ccc(Br)cc1 (centres undefined) | 6005
CCc1nc2ccc(C(=O)N(C)CCCN(C)C)cn2c1N(C)CCCc1ccccc1 | 3569
CCC[C@H]1CN(c2ccc(Br)cc2)C(=O)[C@@H]1CC(=O)Nc1ccc(OC)cc1 | 4376
CSc1ccc(CN2CCC(C)(Oc3ccc(CC#N)cc3)C2)cc1 (centres undefined) | 4056
Cc1ccc(F)c(S(=O)(=O)NC(=O)C2(C)CCN2C(=O)c2ccc(C(F)(F)F)nc2C)c1 (centres undefined) | 2874
c1cc2cc(CNc3nc(NCC4CC4)nc4ccsc34)ccc2o1 | 3049
CC(=O)OC[C@@H]1CN(Cc2ccccc2)C[C@H](n2cnc3c(NCC(C)C)ncnc32)O1 | 3722
CCOC(=O)C1(C)CCCCCN1C(=O)c1ccc(N(C)C)cc1 (centres undefined) | 3599
Cc1ccnc(Nc2ccc(CCO)cc2)n1 | 6005
CCOC(=O)[C@]12CCC=C1N(Cc1ccc3c(c1)OCO3)C(=O)[C@H](CC(=O)N1CCN(C(=O)c3ccco3)CC1)C2 | 4116
CCNC(=O)c1cc2c(c(-c3cccc(-c4cncnc4)c3)n1)[C@@H](CCO)N(C(C)=O)C2 | 6044
CCOC(=O)C1=CCN(S(=O)(=O)c2ccccc2C)C1c1ccccc1 (centres undefined) | 4371
CC[C@H](CO)Oc1cc(NCc2cccc(N)c2)c2ncn(C(C)C)c2c1 | 5196
CCCNC(=O)C1(C)CCN(Cc2ccc(-c3ccccc3)o2)C1 (centres undefined) | 3822
CCOC(=O)C1=C[C@@H](C)N(S(=O)(=O)c2ccc(C)cc2)[C@H]1c1ccccc1 | 5406
CC(=O)Nc1cncc(-c2ccc(CN(C)C)cc2)n1 | 3930
COc1ccc(S(=O)(=O)NC(=O)C2(C)CCN2C(=O)Cc2ccccc2Cl)cc1 (centres undefined) | 2704
CCNC(=O)C1(C)CCN1CCC(=O)c1ccc(Br)cc1 (centres undefined) | 3165
Cc1c(C(=O)NCc2cccc(C(F)(F)F)c2)sc(=O)n1Cc1ccccc1F | 5604
O=S(=O)(NCc1nnnn1-c1ccc(F)cc1)c1ccc(F)cc1 | 2989
COc1ccc(Cc2c(C(C)(C)C)nc3ccc(C)cn23)c(C)c1 | 4366
COc1ccc(C(=O)Nc2cc(OC)c(NC(=O)Nc3ccccc3)cc2OC)cc1 | 3528
FC(F)(F)c1cc(Cl)c2nc(-c3ccccc3)c(Cc3ccccc3)n2c1 | 5981
S=C(NNC(=S)Nc1ccc(Cl)cc1)NNc1ccccc1 | 3438
COCCNC(=O)C1(C)CCCN(C(=O)c2ccccc2)C1 (centres undefined) | 3353
SMILES | Bead autofluor
O=C(NC(c1ccc(-c2ccccc2)cc1)c1cnccn1)C1CCN(Cc2cccc(C(F)(F)F)c2)CC1 (centres undefined) | 4163
O=C1NC[C@@H](CCCCN2C[C@H](Cc3ccc(O)cc3)N(CCc3ccccc3)C(=O)C2=O)N(CC2CCCCC2)C1=O | 5724
CC1=C(C(=O)N(C)C)CC(CC(=O)NCCCCc2ccccc2)C(=O)N1Cc1ccccc1 (centres undefined) | 3732
CC1(C(=O)Nc2ccc3c(c2)OCO3)CCN1C(=O)CCC1CCCC1 (centres undefined) | 2859
CCCCCc1c(CC)ncn1CCc1ccccc1OC | 4834
CC1(C)C2CCC(CN=C(N)CSS(=O)(=O)O)C1C2 (centres undefined) | 2793
CC(=O)c1cccc(NC(=O)C2Cc3c(-c4ccc5c(c4)OCO5)ccnc3O2)c1 (centres undefined) | 2877
O=C(C(O)c1ccc(Br)cc1)N1CCC(Nc2ccc3[nH]ncc3c2)CC1 (centres undefined) | 3703
Cc1ccc(S(=O)(=O)NCC(=O)NCC(=O)N(C)Cc2ccc(Br)s2)cc1C | 3594
COc1ccc(C(=O)N2CCCC(c3cc(C(=O)Nc4ccccc4)no3)C2)cc1 (centres undefined) | 3037
c1ccc(CCNc2ccc3ncc(-c4cccc5ccccc45)n3n2)nc1 | 3771
CCCCn1nnnc1C(c1ccccc1)N1CCN(CC)CC1 (centres undefined) | 4481
COCCNC(=O)C1(C)CCN(C(=O)c2ccc3c(c2)C(C)(C)CCC3(C)C)C1 (centres undefined) | 4378
CCCC(=O)N1CCC1(C)C(=O)Nc1ccccn1 (centres undefined) | 3957
CCOC(=O)[C@]12CCCC=C1N(Cc1ccc(Cl)cc1Cl)C(=O)[C@H](CC(=O)NCc1ccc(OC)c(OC)c1)C2 | 5638
Cc1ccccc1Cn1c(C)c(C(=O)NCc2cccc(C(F)(F)F)c2)sc1=O | 5449
O=C1NC[C@H](CCCCN2C[C@H](Cc3ccccc3)N(CCC3CCCCC3)C(=O)C2=O)N(CCc2ccc(O)cc2)C1=O | 4163
CC1CCCN(C(=O)c2ccc3c(=O)n4nc(Nc5ccccc5)sc4nc3c2)C1 (centres undefined) | 3816
c1ccc(COc2ncnc3c2ncn3CCCNC2CCN(Cc3ccccc3)CC2)cc1 | 3042
Cc1ccc(N(CC(=O)NC(C)(C)C)C(=O)CCC(=O)Nc2ccccn2)c(C)c1 | 3370
Cc1cn([C@H]2C[C@H](O)[C@@H](CNCC3=Cc4cc(O)ccc4OC3)O2)c(=O)[nH]c1=O | 3313
O=C(CC[C@H]1O[C@@H](n2ccc(=O)[nH]c2=O)[C@H](O)[C@@H]1O)N[C@@H](Cc1ccccc1)C(=O)NCC1CCCO1 (some centres undefined) | 5915

A portion of the library (hit frequency here may not be typical).
